Assay outcomes from PubChem BioAssay.
HSD17B inh = blocks hydroxysteroid 17-beta dehydrogenase activity; Q99714; recombinant HSD17B10, NADH fluorescence kinetic; many of its hits are not listed in these tables; Potency, µM (doses to about 57.1 µM), for inactives: at the highest dose activity change, negative = inhibition, actives largely listed as inhibitors; actives 7.6% (n = 75,000); active means well fitted inhibition curve with a large enough effect;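 further: the protocol describes HADH2 (HSD17B10) and not the HSD17B4 of the title; nearly all actives have a fitted effect of over 70% in size; most hits overshoot -100% by far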
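Enzyme plus compound, 15 min room temperature; substrate mix added (NAD+ 1 mM, beta-hydroxybutyryl-CoA 90 uM final); plates read kinetically for NADH fluorescence. HADH2 was His-tagged, E. coli-derived, 20 nM.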
* marks the source's active call; other numbers are inactive results. On the % scale 0 is the no-effect control and ±100 the full control effect; potency means the concentration at half of the fitted maximal effect. Some of the compounds tested, so the mix of outcomes need not match the whole.

SMILES	HSD17B inh
CCC1C(=O)OC[C@H]1Cc1cncn1C (some centres undefined)	4%
CC[C@@H]1C(=O)OC[C@@H]1Cc1cncn1C	6%
